hNpr1 antagonist: blocks ANP-stimulated signaling of human Npr1 receptor | 1.6% of 76,000 active | Potency, µM (doses to about 46.3 µM), for inactives: at the top dose activity change, negative = inhibition, hits mostly inhibitors | HEK293 hNpr1 GloSensor cGMP, ANP-stimulated luminescence | P16066; active = well fitted inhibition curve with a large enough effect; inconclusive = small, poorly fitted or top-dose-only effect; inactive = no such curve, though single readings can be large or run the other way;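 also: nearly all actives have a fitted effect of over 60% in size; nearly all hits also lower the signal before the agonist is added; a reference antagonist and vehicle were the controls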
Target sequence (P16066 whole entry, looked up): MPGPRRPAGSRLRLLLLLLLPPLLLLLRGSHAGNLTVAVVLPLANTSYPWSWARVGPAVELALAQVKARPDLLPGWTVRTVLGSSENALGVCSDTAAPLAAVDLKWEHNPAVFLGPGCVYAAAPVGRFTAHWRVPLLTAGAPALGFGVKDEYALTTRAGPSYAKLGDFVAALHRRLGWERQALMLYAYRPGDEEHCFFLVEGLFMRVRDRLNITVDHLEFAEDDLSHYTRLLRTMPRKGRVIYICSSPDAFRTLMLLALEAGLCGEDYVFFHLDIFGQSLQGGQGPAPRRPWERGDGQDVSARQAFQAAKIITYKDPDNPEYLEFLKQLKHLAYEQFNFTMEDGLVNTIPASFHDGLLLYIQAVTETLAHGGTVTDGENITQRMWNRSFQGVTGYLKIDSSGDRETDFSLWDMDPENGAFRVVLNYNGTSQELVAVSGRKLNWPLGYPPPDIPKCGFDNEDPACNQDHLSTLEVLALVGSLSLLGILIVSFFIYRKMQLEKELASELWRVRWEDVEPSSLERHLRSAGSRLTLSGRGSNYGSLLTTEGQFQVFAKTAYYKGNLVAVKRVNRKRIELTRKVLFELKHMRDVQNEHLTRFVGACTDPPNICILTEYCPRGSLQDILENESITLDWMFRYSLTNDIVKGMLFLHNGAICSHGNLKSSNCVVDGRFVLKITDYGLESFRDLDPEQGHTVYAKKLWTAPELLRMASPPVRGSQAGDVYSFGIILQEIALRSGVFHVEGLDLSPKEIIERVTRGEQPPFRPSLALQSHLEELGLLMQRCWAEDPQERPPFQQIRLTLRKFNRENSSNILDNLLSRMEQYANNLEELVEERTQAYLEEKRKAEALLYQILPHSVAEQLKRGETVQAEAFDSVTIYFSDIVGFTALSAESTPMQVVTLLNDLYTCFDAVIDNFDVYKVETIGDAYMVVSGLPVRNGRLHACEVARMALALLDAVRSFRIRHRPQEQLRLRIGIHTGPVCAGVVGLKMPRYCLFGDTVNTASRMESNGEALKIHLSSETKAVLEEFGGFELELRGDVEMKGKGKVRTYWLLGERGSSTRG
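Compound pre-incubated 30 min at room temperature on GloSensor-loaded HEK293 cells stably carrying hNpr1 and the pGS-40F cGMP biosensor. Stimulation uses hNppA at 0.1 nM final; luminescence is taken at baseline and 20 min post-agonist.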
Starred values were filed as active, the others as inactive; ? = inconclusive; [ ] = remark or other dose. % is scaled to controls: 0 for no effect and ±100 for the full control effect; potency is read from the fitted curve at half-maximal effect. Not all compounds are listed. The share of hits here may be higher or lower than overall.

A first look (7 entries):
SMILES	hNpr1 antagonist
O=C(c1c(F)cccc1F)N(CC1CCOC1)C1CC1 (configuration not stated)	0%
Cc1csc(NC(=O)c2nc3c(o2)CCN(Cc2ccc4[nH]ccc4c2)CC3)n1	-17%[70.6 µM]
COCC(=O)N[C@H]1C[C@@H](Cc2cc(-c3ccccc3)on2)C1(C)C	-22%[70.6 µM]
CN1CCCCCCN(C(=O)c2cnccn2)[C@H]2CCC[C@H]2C1=O	3%
CCNC(=O)N(C1CC1)C1CCOC2(CCN(C(=O)c3sc(C)nc3C)CC2)C1 (configuration not stated)	-2%
C=CCNC(=O)CCc1c(CC)nn(-c2ccc(OC)cc2)c1Oc1ccccc1F	4%
Cc1noc(-c2cn(C3CCN(C(=O)c4ccoc4)C3)nn2)n1 (configuration not stated)	5%

Main list, from the first entry:
SMILES	hNpr1 antagonist
O=C(c1c(F)cccc1F)N(CC1CCOC1)C1CC1 (configuration not stated)	0%
Cc1csc(NC(=O)c2nc3c(o2)CCN(Cc2ccc4[nH]ccc4c2)CC3)n1	-17%[70.6 µM]
COCC(=O)N[C@H]1C[C@@H](Cc2cc(-c3ccccc3)on2)C1(C)C	-22%[70.6 µM]
CN1CCCCCCN(C(=O)c2cnccn2)[C@H]2CCC[C@H]2C1=O	3%
CCNC(=O)N(C1CC1)C1CCOC2(CCN(C(=O)c3sc(C)nc3C)CC2)C1 (configuration not stated)	-2%
C=CCNC(=O)CCc1c(CC)nn(-c2ccc(OC)cc2)c1Oc1ccccc1F	4%
Cc1noc(-c2cn(C3CCN(C(=O)c4ccoc4)C3)nn2)n1 (configuration not stated)	5%
COc1ccc(NC(=O)C2CC(=O)N(c3n[nH]c4cc(Br)ccc34)C2)cc1 (configuration not stated)	4%
COc1cc(Cl)c(C)cc1NC(=O)CN1C(=O)C(c2ccccc2)=NC12CCCC2	-5%
COc1cccc(C(=O)N2CCOC[C@H](OC)C2)c1	6%[70.6 µM]
COc1cccc(CCC(=O)Nc2ccc(-c3nnc4n3CCCC4)cc2)c1	2%
COCCn1c(C)cnc1CCNC(=O)NCc1ccc(C)cc1	-12%
Cc1c(C(=O)N2C[C@@H](C)[C@](O)(C3CCC3)C2)n(C)c2c(C)cccc12	6%
COc1ccc(C(=O)N2CCC(N3C(=O)C(OC)C34CCOCC4)CC2)cc1 (configuration not stated)	8%
CC(C)c1cccc(NC(=O)CN2C(=O)NC(c3ccccc3Cl)C3=C2COC3=O)c1 (configuration not stated)	-23%
CC(C)NC(=O)N[C@H]1CCN2C(=O)c3cc(-c4ccc5c(c4)OCO5)ccc3NC(=O)[C@@H]2C1	8%
Cc1ccc(CN2C(=O)NC3(CCN(C(=O)Cc4cccc(F)c4)CC3)C2=O)cc1	-23%
Cn1cccc1C(=O)N1CC[C@@H]2CN(S(C)(=O)=O)[C@@H]2C1	5%
CC(C)CCN1CCC(N2CCN(S(=O)(=O)c3ccc(Cl)cc3)CC2)C1=O (configuration not stated)	2%
COc1ccc(-c2ccc3ncc(Nc4ccc5c(c4)OCO5)n3n2)cn1	-13%[70.6 µM]
O=C(N[C@H]1C[C@H]2C(=O)NC[C@@H](CCC(=O)N3CCc4ccccc43)N2C1)c1ccc(F)c(Cl)c1	-3%
COC(=O)[C@H]1CN(C(=O)c2ccc(N(C)C)cc2)CCN1C(=O)c1cccs1	2%[70.6 µM]
O=C(CN1C(=O)NC2(CCCCC2)C1=O)Nc1ccccc1	0%
CCc1noc(C)c1C(=O)N[C@H]1[C@@H]2CCO[C@@H]2[C@@H]1C1CCCC1	4%
Cn1c(C(=O)N2CCCC2)cc2c1CCN(Cc1ccccc1)C2	0%
The list continues:
SMILES	hNpr1 antagonist
COCC1CN(C2CCC2)CC12CCN(C(=O)COc1ccccc1)CC2 (configuration not stated)	-23%
COCC(=O)N1CC[C@@H](CC(=O)O)[C@@H](CCN2CCN(c3ccccc3)CC2)C1	2%[70.6 µM]
Cc1ccn(CC(=O)N2C[C@@H](COCC3CC3)[C@H](c3ccccn3)C2)n1	3%
CCN(C(C)=O)C1CCN(c2nc(CCN)nc3sc(C)c(C)c23)C1 (configuration not stated)	0%
Cc1noc(-c2nc(-c3cccc(Cl)c3)no2)n1	-4%
CCOc1ccc(C(=O)N2CCC(Cc3nc(C(C)C)no3)CC2)cc1	?
O=C(NCCCn1cccn1)c1ccccc1OC1CCN(Cc2ccccn2)CC1	0%
COc1ccc(NC(=O)c2ccc3c(c2)OCCN(CCC(C)C)C3)c(F)c1	-18%[70.6 µM]
O=C(NC1CCC(n2cnnc2)CC1)c1ccc(Cn2cnnn2)cc1 (configuration not stated)	2%
O=C(Cc1ccccc1)Nc1ccnn1C1CCN(Cc2cc3ccccc3s2)CC1	?
CC(=O)c1cccc(NC(=O)CN2C(=O)NC3(CCC(C(C)(C)C)CC3)C2=O)c1 (configuration not stated)	0%
CCc1noc(-c2cccn3c(CNC(=O)c4ccc(F)cc4)nnc23)n1	-13%
CCCN(C)C(=O)c1onc(-c2ccc(F)cc2)c1[C@H](C)O	3%[70.6 µM]
COc1cc(C(=O)N[C@H](C)c2onc(-c3ccccc3)c2C(=O)O)cc(OC)c1OC	-3%[70.6 µM]
CSc1cccc(NC(=O)Cn2c(N3CCN(c4ccccc4)CC3)nc(C)cc2=O)c1	-3%
O=C(N[C@@H]1CCN(C(=O)CCc2ccccc2F)C[C@H]1O)c1ccccn1	-3%
COCCNC(=O)C[C@@H]1O[C@H](CNC(=O)c2cccc(F)c2)[C@@H](O)[C@H]1O	1%[70.6 µM]
CCc1nc2cc(N3CCC(C(=O)NCc4ccc5c(c4)OCO5)CC3)cnc2nc1CC	-1%
CN1CCC(Nc2ncc(C(C)(C)C(=O)O)c(N3CCOCC3)n2)CC1	4%
Cc1ccc(C(=O)N2C(C(=O)NCC(C)C)COC23CCN(C(=O)c2cccc(Cl)c2)CC3)cc1 (configuration not stated)	-11%
COc1ccc(C2(C(=O)N3CCCN(c4cc(-c5ccc(C)c(C)c5)[nH]n4)CC3)CC2)cc1	?
COCCOc1cc(-c2noc([C@@H]3CCCN3C3CCC3)n2)ccn1	6%[70.6 µM]
CCNC(=O)NCCc1ncc(C)n1Cc1ccc(F)cc1	4%
CCOCC1(C)COc2ccc(C(=O)Nc3cccc(N(C)C)c3)cc2N1 (configuration not stated)	0%[70.6 µM]
COC(=O)c1cccc(NC(=S)N[C@H]2CO[C@H]3[C@@H]2OC[C@@H]3n2cc(CC3CCCCC3)nn2)c1	?

Reprinted from the part before: three compounds, followed by the next part.
SMILES	hNpr1 antagonist
CCNC(=O)NCCc1ncc(C)n1Cc1ccc(F)cc1	4%
CCOCC1(C)COc2ccc(C(=O)Nc3cccc(N(C)C)c3)cc2N1 (configuration not stated)	0%[70.6 µM]
COC(=O)c1cccc(NC(=S)N[C@H]2CO[C@H]3[C@@H]2OC[C@@H]3n2cc(CC3CCCCC3)nn2)c1	?
CCC(=O)N(C1CCOCC1)C1CCN(S(=O)(=O)c2ccccc2)CC1	-3%
CC(C)c1cc(C(=O)NCc2cccnc2Oc2ccc(F)cc2F)on1	-5%
CC(=O)N1CCC(C(=O)NCC(=O)N2CCCCCNC(=O)CC2c2ccccc2)CC1 (configuration not stated)	7%
CCOc1cc(=O)n2c(c1C(=O)NCCCN1CCCCC1)CCCCC2	-1%
CCOC(=O)C1=C(C)N=C2SC=C(CC(=O)Nc3ccc(C)c(C)c3)N2C1c1cccc(OC)c1 (configuration not stated)	-16%
CN(C)C[C@@H]1CN(c2ccccn2)C[C@H]1NC(=O)c1cccc(C#N)c1	-10%
Cc1cccc(NC(=O)Cn2nc3n(c2=O)CCCCC3)c1	2%
COc1ccc(NC(=O)N2CCC(N3CC4CC(C3)[C@H]3CCCC(=O)N3C4)CC2)c(C)c1 (some centres not stated)	1%
CCCOCC(=O)N1CCc2onc(-c3ccc(C(F)(F)F)cc3)c2C1	3%
CCn1c(=O)n(CC)c2cc(NC(=O)[C@H]3CC[C@@H](N)C3)c(C)cc21	2%
Cn1ncc(N2CCC(CNC(=O)CN3CCCC3=O)C2)cc1=O (configuration not stated)	-2%
COC(CNc1nc(-c2ccccn2)nc2c1c(C)nn2C)c1cccs1 (configuration not stated)	1%
O=C(c1ccco1)N1CCC(c2nc(C3CCOCC3)no2)C1 (configuration not stated)	19%
CCOc1ccccc1NC(=O)CC1CCCN(c2cnn(CC)c(=O)c2)C1 (configuration not stated)	1%
CCOc1ccc(C(=O)N2CCc3nc(OCCOC)ccc3C2)cc1OCC	7%
CC(C)c1nc(-c2ccc(OC3CCN(C(=O)CCc4nc5ccccc5[nH]4)C3)cc2)no1 (configuration not stated)	?
Cc1ccc(NC(=O)N2CCC3(CC2)C(=O)N(CC(=O)N2CCCC2)CN3c2ccccc2)cc1	-3%
C[C@@]1(NC(=O)Cc2ccccc2)OC[C@H]2CC[C@@H](C(=O)NC(c3ccccc3)c3ccccc3)N2C1=O	7%
CCc1noc(-c2cn(C3CCCN(C(=O)c4ccc(C(C)(C)C)cc4)C3)nn2)n1 (configuration not stated)	-26%
Cn1cnnc1CC1CCCN(C(=O)NC2CCCC2)C1 (configuration not stated)	-3%
CCOC(=O)C1=CN(CC(=O)Nc2c(C)cccc2C)S(=O)(=O)N=C1C	-17%
CC(C)Oc1ccc(CNC(=O)c2cc(-c3ccncc3)cn2C)cc1	-17%
COc1ccc(-c2nn(-c3ccccc3C)cc2CN2CCCOCC2)cc1F	-6%
COc1cc(NC(=O)Cn2c(N3CCN(c4ccccc4)CC3)nc(C)cc2=O)cc(OC)c1	-21%
CN(Cc1nnc(C(=O)N2CCC[C@@H]2c2cccc(F)c2)n1-c1ccccc1)c1ccccc1	-3%
More results follow:
SMILES	hNpr1 antagonist
COCC(=O)NC[C@H]1CCN(Cc2ccccc2)C[C@H]1N(C)C	-3%
COc1ccc(-c2nnc([C@H]3CCN(Cc4ccc(C(=O)O)cc4)C3)o2)cc1	5%[70.6 µM]
CCc1ccc(C(=O)N2CCc3[nH]nc(C(=O)N(C)C)c3C2)cc1	-4%
O=C(c1ccco1)N1CCC(c2noc(COCC3CC3)n2)CC1	2%
COc1ccc(CN(C(=O)c2ccco2)c2ccc(CC(=O)NCc3ccccc3)cc2)cc1	-17%
COc1cc(-c2nc(CN3CCSCC3)c(C)o2)ccc1F	0%
C#CCNC(=O)C[C@@H]1C[C@@H](C(C)C)[C@H](CO)C=C1C	-2%[70.6 µM]
O=C(C(=O)N1CCc2[nH]nc(-c3ccccc3F)c2C1)c1ccco1	1%
O=C(Nc1ccccc1)N1CCc2nc(C3CC3)nc(-c3ccc(Cl)cc3)c2C1	-1%
O=C(O)C[C@@H]1CCN(C(=O)c2ccccc2)C[C@@H]1CCN1CCN(c2cccc(C(F)(F)F)c2)CC1	1%
O=C(NCc1cccc(Cl)c1)c1cnc2c(c1)N(C(=O)Cc1ccc(O)cc1)CCC2	-9%[70.6 µM]
CN(C)c1ccc(C(=O)N2CCN(C(=O)C3CCCCC3)[C@H](C(=O)N[C@@H](CC3CCCCC3)C(N)=O)C2)cc1	7%
Cc1noc(C)c1CCC(=O)N1C[C@@H](CO)[C@H](c2ccccn2)C1	4%
COC(=O)[C@@H]1Cc2c([nH]c3ccccc23)[C@H]2C[C@@H](NCCNC(C)=O)C[C@@H](c3ccc(C(F)(F)F)cc3)N21	-9%
CCC(=O)N1CCC(c2nc(C3CCOCC3)no2)C1 (configuration not stated)	3%
COCC(=O)Nc1ccc2c(c1)CN(CCc1ccccc1)C(=O)C(C)O2 (configuration not stated)	-14%
Cc1nc(C)c(C(=O)NCC23CCCC=C2NC(=O)CC3)s1 (configuration not stated)	6%
CCOC(=O)C1(Cc2ccccc2C(F)(F)F)CCN(Cc2ccccn2)CC1	-1%
COc1ccc(C(=O)N2CCC3(CC2)N=C(c2ccc(C)cc2)NO3)cc1	-28%
CC(C)(CC(=O)O)CC(=O)N1C[C@@H]2C[C@H](C1)c1ccc(-c3cc4ccccc4s3)c(=O)n1C2	-2%
CN1CCCN(C(=O)C2CCC2)c2ccccc21	-6%
CCC(C)NC(=O)N1CC(n2cc(C(=O)NCc3ccncc3)nn2)C1 (configuration not stated)	6%
Cc1noc([C@@H]2CN(S(=O)(=O)c3c(C)noc3C)C[C@H]2C(N)=O)n1	-2%
NS(=O)(=O)c1ccc(F)c(C(=O)NCc2ccc3nonc3c2)c1	0%
CC[C@@]1(O)CCN(C(=O)CCc2nc(-c3ccncc3)no2)C[C@H]1O	9%

The final two entries of the section before open the next one:
SMILES	hNpr1 antagonist
NS(=O)(=O)c1ccc(F)c(C(=O)NCc2ccc3nonc3c2)c1	0%
CC[C@@]1(O)CCN(C(=O)CCc2nc(-c3ccncc3)no2)C[C@H]1O	9%
CCOC(=O)N1CCN(C(=O)c2cccc(CC3CCNCC3)c2)CC1	4%
O=C(O)c1ccc(CN2CC[C@@H](c3ccc4ccccc4c3)[C@H](O)C2)cc1	0%
CS(=O)(=O)c1cnc(NCCn2ccnc2)nc1C1CCCNC1 (configuration not stated)	3%
COc1ccccc1OCCNC(=O)CCC1CCN(C(=O)c2ccccc2F)CC1	-4%
O=C(c1ccc(N2CC3CC(C2)[C@H]2CCCC(=O)N2C3)nc1)N1CCCC1 (some centres not stated)	-1%
O=C1CC(c2ccccc2)N(C(=O)C2CC2)CCCN(C(=O)c2ccncc2)CCN1 (configuration not stated)	0%
CCOC(=O)C[C@@H]1C[C@@H](C(C)C)[C@H](CNS(=O)(=O)c2ccc(NC(C)=O)cc2)C=C1C	-5%
Cc1nnn2c(C(=O)Nc3ccc(F)cc3)cccc12	4%[70.6 µM]
COc1ccc2[nH]c3c(c2c1)CCNC31CCN(C(=O)c2cnccn2)CC1	4%
CN(CC1CCOC1)S(=O)(=O)c1ccccc1 (configuration not stated)	4%

Screening results deposited in PubChem BioAssay by National Center for Advancing Translational Sciences (NCATS).
